Vif A3G = inhibitors of Vif binding to APOBEC3G peptide, primary screen, biochemical, TR-FRET, GST-Vif 1-94, biotin-A3G peptide, dose response retest (AID 1117319) | inhibition, %; hits with a dose series show IC50 in µM | actives 0.57% (n = 260,000) | TR-FRET GST-Vif / biotin-A3G peptide binding; higher % means a stronger effect; test concentration not given here; strong numbers were not always called active;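 active = above the screen mean plus three standard deviations and confirmed in dose response; inconclusive = results disagree or hit not tested in dose response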;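 note: Vif residues 1-94 fused to GST binding biotinylated APOBEC3G peptide 110-148; 0% = full assay without inhibitor and 100% = GST in place of GST-Vif; retest series ran down from 100 µM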
FGF22 binding = FGF22 (human) thermal shift binding | Q9HCT0 | recombinant FGF22 thermal shift, SYPRO orange fluorescence; percent of sucrose octasulfate shift, DMSO zero | calls only at 9.99 µM | actives 1.5% (n = 340,000) | AID 651658;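 active = melting point raised past a set limit in the mean and every replicate; inconclusive = no clear call; three in four hits are not shown here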
Target sequence (Q9HCT0 whole entry, looked up): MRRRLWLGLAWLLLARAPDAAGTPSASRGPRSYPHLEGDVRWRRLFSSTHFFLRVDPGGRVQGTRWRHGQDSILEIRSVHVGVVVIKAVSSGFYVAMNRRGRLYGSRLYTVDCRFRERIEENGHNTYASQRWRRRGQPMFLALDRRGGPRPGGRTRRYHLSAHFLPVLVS
Ecoli growth = E. coli growth inhibition | actives 0.21% (n = 330,000) | OD600 absorbance (test concentration not listed) | Escherichia coli growth, OD600, 23 h; hits give low values;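 active = OD600 absorbance below the run mean of sample wells minus 3.6 SD, in any replicate, cut at about 0.56 in these data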;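 note: stock transfer was 300 nL into about 60 µL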
HNF4A DNA FP = change in binding of human HNF4 alpha to DNA | P41235 | HNF4a-FITC DNA binding, fluorescence polarization, 1 h | activity change, % at 10 µM | actives 0.3% (n = 360,000) | AID 1224865; in the data active = activity change above about 30%, passing the limit was not always enough;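 note: controls were the assay level and a saturating level of protein; the project sought stronger binding though the title names inhibitors; some compounds called inactive have numbers as strong as hits; positive values seem to mean higher polarization but the record does not say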
ALR H2O2 inh = inhibitors of human sulfhydryl oxidase ALR. P55789. purified ALR, DTT oxidation, H2O2 HRP-luminol luminescence. inhibition, % (test concentration not listed). actives 3.8% (n = 290,000). AID 485317;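 active = mean and each replicate at 75% or more; inconclusive = only one of the two met; inactive = neither met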;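 note: stock transfer was 7.5 nL into about 7.5 µL; 0% = neutral wells and 100% = wells with inactivated enzyme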
Target sequence (P55789 whole entry, looked up): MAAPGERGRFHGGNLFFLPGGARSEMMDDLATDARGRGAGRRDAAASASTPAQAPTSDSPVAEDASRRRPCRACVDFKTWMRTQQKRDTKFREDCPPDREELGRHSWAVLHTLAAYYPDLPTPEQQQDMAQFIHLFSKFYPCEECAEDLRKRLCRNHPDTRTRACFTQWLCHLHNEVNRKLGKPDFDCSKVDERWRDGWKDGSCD
Ecoli rRNA inh = inhibits bacterial ribosomal RNA function over humanized ribosomes. E. coli WT GFP vs humanized-ribosome RFP mutants, fluorescence, 24 h; hits give low values; DMSO median 0, no signal -100. GFP signal change (wild-type ribosome), % (concentration not given with the values). actives 1.6% (n = 350,000). AID 720706;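 active = significant combined selectivity score with lowered wild-type GFP, culture density cut under 30%, mutant RFP and density less affected; inactive = any of these conditions unmet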; note: one replicate is shown; some compounds called inactive have numbers as strong as hits
AF4-AF9 inh = inhibitors of human MLL-AF4/AF9 interaction | P42568 | inhibition, % at 10 µM | AID 651704 | actives 0.47% (n = 350,000) | AlphaScreen, biotin-AF4 peptide binding to FLAG-AF9;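 active = every replicate reaching a set inhibition limit, whatever the replicate mean, cut at about 25% in these data; inconclusive = mean inhibition reaches that limit but some replicates miss it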;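 note: 0% = plate neutral control median and 100% = total signal loss; the record names both 10 and 1 µM as test concentration; the first replicate is given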
Target sequence (P42568 whole entry, looked up): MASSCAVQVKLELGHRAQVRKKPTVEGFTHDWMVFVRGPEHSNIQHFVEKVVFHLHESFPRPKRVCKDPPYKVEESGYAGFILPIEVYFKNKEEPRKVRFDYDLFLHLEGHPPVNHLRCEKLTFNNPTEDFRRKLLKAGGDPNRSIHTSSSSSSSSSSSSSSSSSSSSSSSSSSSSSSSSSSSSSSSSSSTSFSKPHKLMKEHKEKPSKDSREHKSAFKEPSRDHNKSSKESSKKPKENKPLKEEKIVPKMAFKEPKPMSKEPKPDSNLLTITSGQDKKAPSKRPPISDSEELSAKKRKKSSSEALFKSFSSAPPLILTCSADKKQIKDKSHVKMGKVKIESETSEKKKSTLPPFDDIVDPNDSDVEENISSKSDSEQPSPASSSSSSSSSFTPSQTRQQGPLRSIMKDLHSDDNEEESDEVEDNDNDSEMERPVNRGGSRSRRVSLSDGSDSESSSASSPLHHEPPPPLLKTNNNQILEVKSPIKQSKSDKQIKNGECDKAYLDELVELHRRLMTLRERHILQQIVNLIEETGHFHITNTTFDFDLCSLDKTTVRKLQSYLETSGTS
Ecoli rRNA inh OD600 = second read-out of Ecoli rRNA inh, no call of its own (marks repeat the call); OD600 change, %; measured here: OD600 growth;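 optical density of the mix in the first replicate; 0 = DMSO median and -100 = no signal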
Ecoli rRNA inh RFP = further read-out of Ecoli rRNA inh, marked with its call; RFP signal change, %; measured here: RFP humanized mutant strains;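 first replicate; 0 = DMSO median and -100 = no signal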
* = called active by the depositor; i = inactive; ? = inconclusive; . = no result given; + = active, no number; & = joins results of further samples.

SMILES	Vif A3G	FGF22 binding	Ecoli growth	HNF4A DNA FP	ALR H2O2 inh	Ecoli rRNA inh	Ecoli rRNA inh OD600	Ecoli rRNA inh RFP	AF4-AF9 inh
C[C@@H]1CN([C@@H](C)CO)C(=O)c2cccc(NC(=O)C3CCCCC3)c2O[C@H]1CN(C)S(=O)(=O)c1ccccc1	.	i	.	.	.	-5	8	-3.1	-8.5
CCOC(=O)[C@]12CCCC=C1N(Cc1cccc3ccccc13)C(=O)[C@H](CC(=O)NCc1cccs1)C2	.	i	.	-1.8	.	7	9	-1.8	1.1
C[C@@H]1CCCCO[C@@H](CN(C)C)[C@@H](C)CN([C@@H](C)CO)C(=O)c2cc(NS(=O)(=O)c3cccs3)ccc2O1	.	i	.	.	.	1	1	-1.1	-0.2
c1ccc(-c2ncc3c(ccc4ccccc43)n2)cc1	-4%	.	0.73	-3.2	-2	.	.	.	.
CC1CCCC(NS(=O)(=O)c2cccc3nsnc23)C1C (stereo not drawn)	.	i	0.67	0.7	1	-13	-25	-2.7	6.2
O=C(N/N=C/c1ccco1)c1ccc(NC(=O)c2ccccc2Cl)cc1	.	i	.	2.6	-4	-6	14	5.4	-0.5
COc1ccc(NC(=O)N(C)C[C@@H]2Oc3ccc(NS(=O)(=O)c4ccccc4)cc3C(=O)N([C@@H](C)CO)C[C@H]2C)cc1	.	i	.	.	.	2	0	-1.1	-1.2
C[C@@H](C(=O)N(C)C[C@@H]1OCc2ccccc2-c2c(n(C)c3ccccc23)C(=O)N([C@@H](C)CO)C[C@@H]1C)c1ccccc1	.	i	.	.	.	-2	-7	1.8	0.4
CC1=C(C(=O)N2CCOCC2)CC(CC(=O)NCc2cccc3ccccc23)C(=O)N1Cc1ccc(F)cc1 (stereo not drawn)	0%	i	.	-3.5	.	-13	-11	4.1	-1.8
C[C@@H]1CN([C@@H](C)CO)S(=O)(=O)c2ccc(C#CC3(O)CCCC3)cc2O[C@H]1CN(C)C(=O)c1cccnc1	.	i	.	.	.	3	0	-3.2	-1.3
CCOC(=O)C1CCN(c2c(NCCN3CCN(c4ccccc4)CC3)c(=O)c2=O)CC1	0%	i	0.71	0.8	10	3	7	-2.5	3.1
OC1c2cc(Br)ccc2N=C2CCCCCN21 (stereo not drawn)	.	i	.	-0.5	.	-6	-1	-1.8	3.0
COC(=O)c1[nH]c2cccc(Cl)c2c1NC(=O)CN1CCCCC1C (stereo not drawn)	-2%	.	0.66	1.0	-4	.	.	.	.
O=C(CNS(=O)(=O)c1ccc(Cl)cc1)NC1CCCCC1	-1%	i	0.73	-3.5	5	5	3	-1.8	8.6
CO[C@@H](CN(C)S(=O)(=O)c1ccccc1)[C@H](C)CN(Cc1ccccc1Cl)[C@H](C)CO	.	i	.	.	.	2	-2	-0.4	-10
CC(C)c1[nH]nc2c1C(C(C)C)C(C#N)=C(N)O2 (stereo not drawn)	10%	.	0.72	0.8	.	.	.	.	.
COCCCNC(=O)/C=C/c1c(Cl)cccc1Cl	10%	.	.	1.6	-9	.	.	.	.
C[C@@H]1CCCCO[C@H](CN(C)CC2CC2)[C@H](C)CN([C@H](C)CO)C(=O)c2cc(NC(=O)c3ccncc3)ccc2O1	.	i	.	.	.	6	8	-1.3	-11
Cc1ccc(NC(=O)c2cc(-c3cc(C)c(C)cc3O)n[nH]2)cc1C	1%	i	0.65	1.5	0	12	6	-0.9	-1.1
CO[C@@H]1CN(C)C(=O)c2cc(NC(=O)Nc3ccc(Cl)cc3)ccc2OC[C@H](C)NC[C@@H]1C	.	i	.	.	.	-2	-4	1.5	4.7
COc1ccc(CCC(=O)NCC23CC4CC(CC(C4)C2)C3)cc1	-6%	i	0.66	0.2	-36	-13	-37	-5.5	-7.5
O=C(Cn1cccc1C(=O)c1ccccc1)NCCN1CCOCC1	23%	.	0.71	-1.0	1	.	.	.	.
Cc1ccc(S(=O)(=O)N2CCN(Cc3cccnc3)CC2)cc1	2%	i	0.73	3.0	-4	6	-2	0.3	1.7
CCOC(=O)Cc1nnc(-c2ccccc2)o1	12%	i	0.7	0.6	9	5	11	-1.1	3.9
Cc1ccc(C2c3c(oc4cc(C)c(C)cc4c3=O)C(=O)N2CCCN2CCOCC2)cc1 (stereo not drawn)	.	i	0.7	-1.6	.	-6	2	-1.4	-0.3
COc1ccc(C(=O)Nc2ccc3c(c2)C(=O)N(C)C[C@@H](OC)[C@@H](C)CN[C@@H](C)CO3)cc1	.	i	.	.	.	0	0	-1.0	-1.5
Cc1ccc(S(=O)(=O)N2CCCCC2)cc1NC(=O)CN1C(=O)c2ccccc2S1(=O)=O	.	i	0.7	0.9	-2	-1	-10	3.1	-0.6
Cc1csc(N(C(=O)c2cccc(S(=O)(=O)N(C)C)c2)c2ccccc2)n1	0%	i	0.7	-3.7	22	-5	-9	-5.6	-21
COc1cccc(NC(=O)CN(C)S(=O)(=O)c2ccc(C)cc2)c1	15%	.	0.69	-2.1	-6	.	.	.	.
COc1ccc(S(=O)(=O)N/N=C/c2ccc(OCCN3CCOCC3)c(OC)c2)cc1	.	i	.	-1.6	21	10	14	4.5	-25
O=C(CSc1nnc(-c2cccnc2)o1)Nc1cccc(Cl)c1	.	i	0.65	3.6	-20	3	11	-1.7	-0.7
Cc1ccc(S(=O)(=O)N[C@H]2CC[C@@H](CCn3cc(C4CC4)nn3)O[C@@H]2CO)cc1	.	i	.	.	.	-2	5	-0.6	-2.4
Cc1ccc(S(=O)(=O)N2CCN(C(=O)COC(=O)COc3cccc4c3OC(C)(C)C4)CC2)cc1	-1%	i	0.7	-3.1	-21	5	7	0.3	1.5
O=C(CCc1ccccc1)Nc1cccc(S(=O)(=O)N2CCOCC2)c1	.	i	0.67	4.8	-6	-1	-30	-3.0	-6.6
C[C@@H]1CN([C@H](C)CO)C(=O)c2cc(Br)cnc2O[C@H]1CN(C)Cc1ccccc1	.	i	.	3.0	.	6&-2	6&-3	-0.8&-4.3	-2.4&1.7
C=C(C)CNC(=S)N/N=C\c1ccc2c(c1)OCO2	.	i	.	3.8	9	-12	-14	4.2	-6.6
CCN(CC)c1ccc(/C=N/NC(=O)CC(C)C)cc1	.	i	.	4.6	99*	7	10	-3.2	5.2
CN1CCN(S(=O)(=O)c2cccc(C(=O)NCc3ccccc3Cl)c2)CC1	-10%	i	0.68	0.6	-1	-2	-1	-0.1	-0.8
C/C(=C1/SC(N2CCOCC2)=NC1=O)c1ccc(Cl)cc1	1%	.	0.68	-0.2	-2	-1	11	-1.3	.
Cc1cccc(NC(=O)CSc2nnc(-c3ccco3)o2)c1	2%	.	0.72	2.8	7	.	.	.	.

Entries of single compounds, quoted from the list:
CC1CCCC(NS(=O)(=O)c2cccc3nsnc23)C1C (stereo not drawn) is entered as Vif A3G: .; FGF22 binding: i; Ecoli growth: 0.67; HNF4A DNA FP: 0.7; ALR H2O2 inh: 1; Ecoli rRNA inh: -13; Ecoli rRNA inh OD600: -25; Ecoli rRNA inh RFP: -2.7; AF4-AF9 inh: 6.2
CO[C@@H]1CN(C)C(=O)c2cc(NC(=O)Nc3ccc(Cl)cc3)ccc2OC[C@H](C)NC[C@@H]1C is entered as Vif A3G: .; FGF22 binding: i; Ecoli growth: .; HNF4A DNA FP: .; ALR H2O2 inh: .; Ecoli rRNA inh: -2; Ecoli rRNA inh OD600: -4; Ecoli rRNA inh RFP: 1.5; AF4-AF9 inh: 4.7
C[C@@H](C(=O)N(C)C[C@@H]1OCc2ccccc2-c2c(n(C)c3ccccc23)C(=O)N([C@@H](C)CO)C[C@@H]1C)c1ccccc1 is entered as Vif A3G: .; FGF22 binding: i; Ecoli growth: .; HNF4A DNA FP: .; ALR H2O2 inh: .; Ecoli rRNA inh: -2; Ecoli rRNA inh OD600: -7; Ecoli rRNA inh RFP: 1.8; AF4-AF9 inh: 0.4

The list continues:
SMILES	Vif A3G	FGF22 binding	Ecoli growth	HNF4A DNA FP	ALR H2O2 inh	Ecoli rRNA inh	Ecoli rRNA inh OD600	Ecoli rRNA inh RFP	AF4-AF9 inh
O=C(Nc1ccc(Cl)cc1)N[C@H]1CC[C@@H](CCNC(=O)c2ccccc2F)O[C@H]1CO	.	i	.	.	.	-6	-15	3.1	-1.5
CC(=O)Nc1cccc(Oc2ccc([N+](=O)[O-])cc2Cl)c1	3%	i	0.7	-3.3	6	0	3	-1.1	1.4
CC(C)(C)/C=N/NC(=O)C1CC1	.	i	.	5.2	-3	22	10	4.1	-0.6
Cc1nc2c3ccccc3[nH]c(=O)n2n1	-11%	.	0.66	1.2	5	.	.	.	.
CC=Cc1ccc2n(c1=O)C[C@H]1[C@H](CO)[C@@H](C(=O)NCc3ccccc3)[C@@H]2N1CC (mixture of isomers)	.	+	.	.	.	1	1	-2.6	0.6
COc1ccccc1-c1csc(C(C)(O)c2ccccc2)n1 (stereo not drawn)	.	i	.	-2.1	.	-5	-12	-2.4	-7.6
CCOC(=O)C1=C(c2ccccc2)OC(N)=C(C#N)C1c1cccs1 (stereo not drawn)	5%	.	0.69	3.1	17	.	.	.	.
CS(=O)(=O)Nc1ccc2c(c1)[C@H]1C[C@H](CC(=O)NCCc3ccccc3)O[C@@H](CO)[C@H]1O2	.	i	.	.	.	4	9	-1.0	2.1
COc1ccc(S(=O)(=O)N(C)C[C@@H]2Oc3ccc(NC(=O)CCN4CCOCC4)cc3C(=O)N([C@H](C)CO)C[C@H]2C)cc1	.	i	.	.	.	3	6	2.4	-2.9
CCNc1nc(C)nc2c1oc1ccccc12	-6%	.	0.67	1.8	-4	.	.	.	.
COc1ccc(NC(=O)c2ccccc2N(Cc2ccccc2)S(C)(=O)=O)c(OC)c1	.	i	0.62	1.1	-10	-6	-6	-0.4	-1.5
C[C@@H]1CN([C@H](C)CO)C(=O)c2cc(C#Cc3ccccc3F)cnc2O[C@H]1CN(C)S(=O)(=O)c1ccccc1F	.	i	.	.	.	-2	-1	0.9	-0.9
NNc1nc2c(F)cccc2s1	.	.	0.67	-3.0	-4	-5	-8	-3.0	3.1
CCNc1nc(NCC)n2c(SCC(=O)c3ccccc3F)nnc2n1	-4%	i	0.66	-1.4	94*	-10	-3	0.1	-1.6
O=S(N1CCc2ccccc21)C12CC3CC(CC(C3)C1)C2 (stereo not drawn)	18%	i	0.71	0.8	.	4	13	5.4	-9.5
CCN(CC)C(c1ccc(C)cc1)c1nnnn1C1CCCCC1 (stereo not drawn)	2%	.	0.69	2.2	-6	.	.	.	.
COc1ccc(CCNC(=O)Cn2nnc(-c3cccs3)n2)cc1OC	3%	i	0.66	3.9	0	-17	-15	12	-2.7
Nc1n[nH]c2ccccc12	?	i	0.67	0.9	34	4	18	-0.9	0.8
CC1(C)NC(=O)N(CCCCOc2ccc3ccccc3c2Cl)C1=O	2%	.	0.71	-1.4	-4	.	.	.	.
Cc1sc(NC(=O)c2ccccc2F)c(CN2CCCCC2)c1C	10%	.	0.68	4.8	95*	.	.	.	.
CC(C)NC(=O)N(C)C[C@H]1Oc2ccc(NC(=O)Nc3cccc4ccccc34)cc2CC(=O)N([C@@H](C)CO)C[C@@H]1C	.	i	.	.	.	2	3	0.8	-2.8
c1csc(-c2ccc(N3CCOCC3)nn2)c1	-3%	i	0.65	0.0	-9	10	15	-0.9	-1.2
CC(=O)c1ccc(N2CCN(CC(=O)NC(=O)NCc3ccccc3)CC2)cc1	-19%	i	0.67	-2.8	0	6	11	-0.3	3.0

Screening results: PubChem, several laboratories

Only part of the results is shown; count on the stated rates, not on these rows.
